MARV entry inh: inhibitors of Marburg virus binding or cell entry | Marburg virus pseudotyped entry inhibition, cell reporter; control for the full effect not named in the record; about a third of the inactives were read at about 46 µM | Potency, µM (series often up to 37.8 µM), for inactives: at the top dose activity change, negative = inhibition, hits mostly inhibitors | 300,000 compounds, 1.8% hits; active = well fitted inhibition curve with a large enough effect; inconclusive = small, poorly fitted or top-dose-only effect, or effect the other way; inactive = flat fitted curve, though single readings scatter; tested in HEK293 cells; about a fifth of its hits are not listed in these tables; note: % is set by controls: 0 for no effect and ±100 for the full control effect; luciferase read-out
SARS PLP yeast: blocks SARS-CoV papain-like protease in a yeast assay; 330,000 compounds, 0.19% hits; Potency, µM (top dose mostly 32.9 µM), inactives show at the top dose activity, positive = growth rescue; AID 485353; S. cerevisiae expressing SARS-CoV PLpro, growth rescue; control for the full effect not named in the record; note: 0% is about no effect; nearly all actives have a fitted effect of over 55% in size; growth read by luminescence after 48 h
Cruzain noTriton: blocks cruzain activity in detergent-free assay. 200,000 compounds, 2.3% hits. Potency, µM, without a hit: max response, negative = inhibition, hits mostly inhibitors. purified cruzain, Z-FR-AMC fluorescence, no detergent; active = well fitted curve in the direction sought with a large enough effect; inconclusive = small, poorly fitted or top-dose-only effect, or another doubt; inactive = no such curve, though single readings can be large; an effect the other way counts as inactive or inconclusive;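 note: plate controls were enzyme without inhibitor for no effect and buffer without enzyme for full effect; nearly all actives have a fitted effect of over 40% in size; top concentration of the series not given in the record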
Target sequence (P25779 123-467 limits assumed): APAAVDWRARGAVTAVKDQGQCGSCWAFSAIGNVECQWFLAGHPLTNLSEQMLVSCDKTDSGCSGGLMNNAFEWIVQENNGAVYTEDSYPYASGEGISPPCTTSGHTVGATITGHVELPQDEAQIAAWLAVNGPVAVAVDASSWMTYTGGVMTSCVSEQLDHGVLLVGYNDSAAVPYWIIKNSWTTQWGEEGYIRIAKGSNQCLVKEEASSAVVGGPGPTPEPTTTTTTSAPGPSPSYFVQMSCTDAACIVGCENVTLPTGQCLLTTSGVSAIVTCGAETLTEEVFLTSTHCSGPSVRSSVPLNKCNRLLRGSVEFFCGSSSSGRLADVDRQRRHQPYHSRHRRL
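Purified cruzain at 1.5 nM, pre-incubated 15 min with compound at room temperature in 100 mM sodium acetate pH 5.5, 5 mM DTT, 0.00005% Triton X-100. Reaction started with 2 uM Z-FR-AMC; AMC fluorescence increase over 60 s gives rate.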
RE007 growth inh: less growth of the S. pombe RE007 Vpr strain | S. pombe RE007 Vpr strain, BacTiter-Glo ATP luminescence, 24 h; control for the full effect not named in the record | Potency, µM (doses to about 92.2 µM), without a hit: at the top dose activity change, negative = less growth | 360,000 compounds, 0.21% hits | AID 651644; active = well fitted falling curve with a large enough effect; inconclusive = small, poorly fitted or top-dose-only effect; inactive = no such curve, though single readings can be large or run the other way;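 note: % is set by controls: 0 for no effect and ±100 for the full control effect; nearly all actives have a fitted effect of over 50% in size; the assay follows cell death caused by Vpr and the record does not say whether a fall means rescue or toxicity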
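Fission yeast strain RE007, carrying one chromosomally integrated HIV-1 vpr copy, was seeded at OD 0.01 in PMG+AL medium with 23 nL pinned compound. After 24 h at 30 °C and 99% humidity, viability was read by BacTiter-Glo luminescence.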
2A StopGo: lowers the luciferase signal of an FMDV 2A StopGo reporter | human cells with a luciferase reporter of 2A StopGo recoding; control for the full effect not named in the record | Potency, µM (doses to about 57.9 µM), for inactives: at the highest dose signal change, negative = less light | 410,000 compounds, 1.2% hits | AID 1159524; active = well fitted falling curve with a large enough effect; inconclusive = small, poorly fitted or top-dose-only effect; inactive = no such curve, though single readings can be large or run the other way; tested in HEK293T cells; note: % is set by controls: 0 for no effect and ±100 for the full control effect; nearly all actives have a fitted effect of over 45% in size; luciferase light after 4 h
NS1 function inh: influenza NS1 inhibition; S. cerevisiae slowed by influenza A NS1, growth recovery by OD600; Potency, µM (highest dose often 46.1 µM), for the others: top-dose activity, positive = more growth; 270,000 compounds, 0.4% hits; AID 2326; note: actives are rising curves; nearly all actives have a fitted effect of over 50% in size
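Compounds were scored for reversing the slow growth caused by influenza A NS1 in S. cerevisiae, measured by optical density at 600 nm. Assay medium contained 2% galactose at pH 6.0; NS1-free yeast of the same strain were the positive control.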
Lassa entry inh: blocks Lassa virus binding to or entry into cells; 300,000 compounds, 1.2% hits; Lassa virus pseudotype entry inhibition, cell reporter; control for the full effect not named in the record; AID 540256; Potency, µM (highest dose often 37.9 µM), inactives show top-dose activity change, negative = inhibition, hits mostly inhibitors; active means well fitted inhibition curve with a large enough effect; inconclusive means small, poorly fitted or top-dose-only effect, or effect the other way; inactive means flat fitted curve, though single readings scatter; tested in HEK293 cells; note: % is set by controls: 0 for no effect and ±100 for the full control effect; nearly all actives have a fitted effect of over 50% in size; luciferase read-out
Cruzain inh Det: blocks cruzain activity in presence of Triton detergent; 200,000 compounds, 0.43% hits; purified cruzain, Z-FR-AMC fluorescence, 0.01% Triton; Potency, µM, without a hit: max response, negative = inhibition, hits mostly inhibitors; P25779; active = well fitted curve in the direction sought with a large enough effect; inconclusive = small, poorly fitted or top-dose-only effect, or another doubt; inactive = no such curve, though single readings can be large; an effect the other way counts as inactive or inconclusive;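 note: plate controls were neutral wells for no effect and buffer without enzyme for full effect; nearly all actives have a fitted effect of over 40% in size; top concentration of the series not given in the record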
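Read-out: AMC fluorescence (360 nm excitation, 450 nm emission), four reads over 2 min, first-to-third difference used. Conditions: cruzain 1.5 nM, Z-FR-AMC 2 uM, pH 5.5 acetate, 5 mM DTT, 0.01% Triton X-100.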
* hit, by the source's call; ? = inconclusive; / = not tested or not shown; & = joins results of further samples; [ ] = dose if it differs, or a comment. Unless noted, calls come from the whole dose curve; as a rule, active means well fitted rising curve with a large enough effect; inconclusive means small, poorly fitted or top-dose-only effect; inactive means no such curve, though single readings can be large or run the other way. Potency is the fitted concentration of half-maximal effect. Hits appear at their usual frequency. About 4.5% of those tested had a hit in this group.

SMILES	MARV entry inh	SARS PLP yeast	Cruzain noTriton	RE007 growth inh	2A StopGo	NS1 function inh	Lassa entry inh	Cruzain inh Det
O=C(c1cccc(N2CCNC2=O)c1)N1CCCC(Nc2cccc(F)c2)C1 (centres undefined)	21%	3%	/	1%	-16%	9%	?	/
CCOc1ccccc1CN1CCC(Oc2ccc(C(=O)NCc3ccccn3)cc2)CC1	/	3%	/	13%	-21%	-16%	/	/
CC(C)Cc1nnc(NC(=O)CSc2ncn[nH]2)s1	10%	11%	21%	3%	0%	3%	12%	-2.3%
CNC(=O)c1cc(S(=O)(=O)Nc2ccc(C)cc2C)ccc1C	-4%	-6%	/	0%	-27%	3%	1%	/
CC(=O)N1CCc2cc(S(=O)(=O)NC(CC(C)C)C(=O)Nc3cc(C)ccn3)ccc21 (centres undefined)	-6%[46.1 µM]	2%	29%	12%	-2%	-9%	-1%	5.6%
CCOc1ccc(NC(=O)NN2C(C)CCCC2C)cc1 (centres undefined)	/	0%	/	4%	-13%	-1%	/	/
COc1ccccc1N(CC(=O)Nc1cc(S(=O)(=O)N(C)C)ccc1C)S(=O)(=O)c1cccs1	?	12%	/	-8%	-29%	/	-20%	/
N/C(=N\OC(=O)COc1ccc2ccccc2c1)c1ccccn1	?	-3%	10%	0%	/	-68%	?	-7.0%
CCn1c(COc2ccc(=O)n(-c3ccccc3)n2)nnc1SCc1cccc(OC)c1	6%	0%	-4%	4%	1%	0%	8%	4.4%
O=S(=O)(Nc1ccc(-c2ccc(N3CCOCC3)nn2)cc1)c1ccc(Cl)c(Cl)c1	?	-2%	/	-10%	-17%	/	-9%	/
COc1ccc(CNC(=O)C(C)n2ccc3cc(S(=O)(=O)N4CCCCCC4)ccc32)cc1 (centres undefined)	/	3%	/	7%	-21%	17%	/	/
CCn1c(SCC(=O)N/N=C/c2ccccc2OCC(=O)O)nnc1-c1ccc(OC)cc1	29%[46.1 µM]	0%	/	1%	-3%	7%	3%	/
COCCn1c(SCC(=O)N2CC(=O)Nc3ccccc32)nnc1-c1ccoc1C	6%	18%	-8%	4%	-4%	-3%	24%	-1.7%
O=C1Nc2cc(Cl)c(Cl)cc2N(O)N1c1ccc(Cl)c(Cl)c1	7%	2%	7%	-4%	/	8%	11%	-4.9%
COC(=O)C(C)Sc1ncnc2c1c(-c1ccccc1)cn2-c1ccc(OC)cc1 (centres undefined)	?	3%	4%	0%	-30%	12%	-10%	-7.0%
CCOc1cc(NS(=O)(=O)c2ccccc2)c(OCC)cc1NC(=O)c1ccco1	-14%	-3%	7%	-18%	-15%	5%	-6%	-5.5%
CCOc1ccc(NS(=O)(=O)c2ccc(C(=O)N3CCN(C(C)=O)CC3)cc2)cc1	0%	2%	/	0%	-3%	6%	-18%	/
Fc1ccc(NC(=S)NC2CCN(Cc3ccccc3)CC2)cc1	/	0%	/	3%	-3%	3%	/	/
Cc1cc([N+](=O)[O-])ccc1NC(=O)CN1CCN(Cc2ccccc2)CC1	/	5%	/	-4%	-9%	12%	/	/
CCOC(=O)c1cc(NC(=O)c2cccnc2)ccc1N1CCOCC1	10%[46.1 µM]	1%	/	-3%	2%	0%	/	/
CCOC(=O)c1ccc(CS(=O)c2ccc(Cl)cc2)o1 (centres undefined)	-12%	-4%	-1%	-17%	11%	-1%	?	0.0%
Cc1noc(C)c1C(=O)Nc1nc2ccccc2s1	?	6%	/	?	36%[activator]	/	-30%	/
O=C(CCS(=O)(=O)c1ccc(Br)s1)N1CCc2ccccc21	20%	4%	-8%	-14%	46%[activator]	-23%	0%	1.6%
Cc1ccc(N(C(C)C(=O)Nc2ccc3c(c2)OCO3)S(C)(=O)=O)cc1 (centres undefined)	15%	-3%	-4%	-4%	-9%	3%	7%	-4.3%
O=C(NC(=S)NCc1nc2ccccc2[nH]1)c1ccccc1F	/	-2%	/	8%	26%	-4%	?	/
CCN(CC)C(=O)C1CCCN(Cc2nc(-c3cnccn3)no2)C1 (centres undefined)	2%[46.1 µM]	0%	/	5%	6%	2%	-2%[46.1 µM]	/
COc1ccccc1NC(=O)C1=C(C)Nc2c(C(=O)Nc3ccc(F)cc3)cnn2C1c1ccc(Cl)cc1 (centres undefined)	/	/	?	/	-7%	/	?	-4.4%
CCCOc1ccc(C(=O)N2CCN(Cc3ccc4c(c3)OCO4)CC2)cc1	14%	-7%	/	6%	?	-48%	?	/
O=C(Nc1ccccc1N1CCOCC1)c1cccc(NS(=O)(=O)c2ccc(F)c(F)c2)c1	-21%	-1%	/	16%	2%	/	9%[46.1 µM]	/
Cc1ccc(Nc2nc(N)nc(CN3CCN(Cc4ccc5c(c4)OCO5)CC3)n2)cc1C	?	0%	/	2%	-22%	0%	-15%	/
CCc1cc2cccc(C)c2nc1SCC(=O)NNC(=O)c1ccco1	13%	5%	-3%	-7%	/	6%	-5%	-6.4%
CCN(CC)Cc1ccccn1	3%	0%	/	-9%	2%	2%	1%	/
CCOC(=O)C1(Nc2nccs2)Sc2ccccc2NC1=O (centres undefined)	-13%	6%	0%	14%	-4%	3%	?	-0.9%
CCCCNC(=O)C1CCN(Cc2ccccn2)CC1	-9%	-11%	-1%	6%	-7%	6%	-3%	2.5%
OCCOc1ccccc1	/	-2%	-2%	-3%	-12%	/	/	-3.9%
Cc1ccc(CC2CC(=O)N(C(Cc3ccccc3)C(=O)O)C2=O)cc1 (centres undefined)	0%[46.1 µM]	1%	/	-10%	-14%	6%	-23%	/
COc1ccc(/C=N\NC(=O)c2cc3c(ccc4ccccc43)o2)cc1O	/	4%	/	2%	-5%	-27%	/	/
Cc1c(O)ccc(C(=O)CN2CCN(c3ccccc3F)CC2)c1O	/	-3%	/	-25%	-3%	-1%	/	/
C/C(=C\C(=O)c1cccnc1)Nc1ccc(O)cc1	18%	-7%	-3%	-23%	51%[activator]	1%	0%	-5.4%
O=C(Nc1cc(Cl)cc(Cl)c1)c1cccnc1	-24%[46.1 µM]	-2%	/	-28%	18%	-112%	-5%[46.1 µM]	/
CCOC(=O)CCN(c1ccccc1)S(=O)(=O)c1ccc2[nH]c(=O)ccc2c1	/	/	-4%	/	-19%	/	-14%[46.1 µM]	-1.7%
O=[N+]([O-])c1ccccc1S(=O)(=O)N1CCN(Cc2ccsc2)CC1	?	1%	/	-19%	-19%	-14%	-9%[46.1 µM]	/
O=C(c1cc2ccccc2c(=O)o1)N1CCCc2ccccc21	7%	1%	12%	-3%	19%	1%	2%	0.5%
Cc1ccc(-c2nnc3ccc(SC(C)C(=O)O)nn23)cc1 (centres undefined)	/	-3%	-5%	13%	-20%	19%	/	-0.1%
CCc1ccc(C(=O)NN=C2CCCCCC2)s1	/	3%	/	6%	30%[activator]	-13%	/	/
COc1cccc(NC(=O)NCCc2ccc(Cl)cc2)c1	10%[46.1 µM]	-1%	/	-18%	21%	-7%	1%[46.1 µM]	/
O=C(/C=C/c1c(Cl)cccc1Cl)N1CCOCC1	/	-1%	/	21%	46%[activator]	-3%	/	/
O=c1c2ccccc2nc2c3ccccc3c(NCc3ccccn3)nn12	?	-1%	/	-12%	-12%	0%	11%[46.1 µM]	/
N=c1c2ccccc2nnn1-c1ccccc1[N+](=O)[O-]	3%	/	/	-6%	-9%	/	6%	/
CC(C)C(=O)Nc1ccc(S(=O)(=O)Nc2nccc(/C=C/c3ccccc3)n2)cc1	?	4%	6%	-8%	-8%	23%	-13%	-10%
Cc1ccc(S(=O)(=O)N2CCCCC2)cc1NC(=O)COC(=O)Cc1ccc(Cl)cc1	7%	-15%	-20%	1%	-9%	?	-6%	-3.6%
O=[N+]([O-])c1ccc2cc[nH]c2c1	0%	/	/	-18%	13%	/	2%	/
O=C(N/N=C/c1ccc(O)cc1)/C(=C/c1ccc([N+](=O)[O-])cc1)NC(=O)c1ccccc1	?	-4%	?	-1%	45%[activator]	5%	?	-0.1%
COc1ccc2nc(C)c3c(c2c1)OC(C(C)(Cl)Br)C3 (centres undefined)	-30%[46.1 µM]	1%	/	-7%	?	-1%	-19%	/
Cc1ccc(CSc2oc(-c3ccco3)nc2S(=O)(=O)c2ccc(Cl)cc2)cc1	1%[46.1 µM]	/	?	/	-30%	/	8%[46.1 µM]	-12%
Cc1ccc(/C=N/NC(=O)C2CCN(Cc3ccc(F)cc3Cl)CC2)o1	10%	11%	-1%	-3%	-25%	8%	14%	1.6%
O=C(Nc1cccnc1)c1cccc(S(=O)(=O)N2CCc3ccccc32)c1	6%[46.1 µM]	0%	/	6%	?	/	-19%	/
CCOc1cc(C(N)=O)cc(Cl)c1OCc1ccccc1	/	-5%	/	7%	14%	-7%	/	/
COc1ccc(N2C(=O)CC(SCC(=O)O)C2=O)cc1 (centres undefined)	0%&0%	-29%	10%	9%	2%	-2%	?	0.4%
CCOC(=O)CSc1nc2c(sc3ccc([N+](=O)[O-])cc32)c(=O)n1Cc1ccco1	10%	14%	?	-11%	-28%	11%	3%	-5.8%
Continued:
SMILES	MARV entry inh	SARS PLP yeast	Cruzain noTriton	RE007 growth inh	2A StopGo	NS1 function inh	Lassa entry inh	Cruzain inh Det
O=C1CN(C(=O)CSc2nnc(C3CC3)n2-c2ccccc2)c2ccccc2N1	6%	15%	-5%	-11%	-7%	5%	7%	7.8%
CCn1cc(C(=O)N(C)c2ccc(OC)cc2)c2cc(OC)c(OC)cc2c1=O	/	-2%	/	14%	-20%	-4%	/	/
CC1CCc2c(C(=O)Nc3ccc(N4CCOCC4)cc3)csc2C1 (centres undefined)	?	6%	/	?	20%	/	-29%	/
O=C(NCC(=O)N1CCc2ccccc2C1)c1ccc(Cl)cc1Cl	-6%[46.1 µM]	-1%	/	5%	2%	0%	15%[46.1 µM]	/
O=C(O)c1ccc2c(c1)N(Cc1cccc(F)c1)C(=O)CS2	/	3%	-23%	7%	-12%	7%	/	6.0%
CC(=O)Nc1ccc(C(=O)Nc2cc(S(=O)(=O)N3CCOCC3)ccc2N2CCOCC2)cc1	?	/	/	1%	6%	/	?	/
